Assay outcomes deposited in PubChem by ICCB-Longwood Screening Facility, Harvard Medical School.
PV pol inh – inhibitors of poliovirus RNA polymerase binding and polymerization; % elongation, % (compound at 16.7 µg/mL); hit rate 0.66% among 150,000; poliovirus polymerase elongation, fluorescence polarization; hits give low values; AID 588519; P03300; in the data active means % elongation below about 90%; further: some results filed as inactive read as strong as hits
Target sequence (P03300 1749-2209 limits assumed): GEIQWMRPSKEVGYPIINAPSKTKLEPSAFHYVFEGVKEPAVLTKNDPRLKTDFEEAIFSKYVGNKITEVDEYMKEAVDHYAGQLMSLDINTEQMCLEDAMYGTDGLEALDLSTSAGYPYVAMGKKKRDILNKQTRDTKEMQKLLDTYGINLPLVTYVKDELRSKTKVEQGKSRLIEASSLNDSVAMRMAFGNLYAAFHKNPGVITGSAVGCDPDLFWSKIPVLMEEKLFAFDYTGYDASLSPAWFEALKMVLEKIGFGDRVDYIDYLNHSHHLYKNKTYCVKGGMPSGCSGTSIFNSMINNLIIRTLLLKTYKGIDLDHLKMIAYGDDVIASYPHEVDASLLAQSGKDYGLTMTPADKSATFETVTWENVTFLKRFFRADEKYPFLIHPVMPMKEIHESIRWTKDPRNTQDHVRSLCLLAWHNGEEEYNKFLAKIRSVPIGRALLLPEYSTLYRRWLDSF
PV pol inh intensity – also measured in PV pol inh; calls as there; % elongation; measured here: total intensity read-out; formula for this scale not given here;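 total fluorescence in place of polarization; lower means less elongation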
The depositor's hits bear a star. The list is partial; the hit share may differ from the screen's.

The opening 2 compounds as a preview:
SMILES	PV pol inh	PV pol inh intensity
CC(=O)Nc1ccc(Nc2ncnc3c2c(-c2ccccc2)cn3-c2ccc(C)c(Cl)c2)cc1	106	110
COc1ccc(-n2c(=O)c3c(C)c(C)sc3n(Cc3ccc(F)cc3)c2=O)c(OC)c1	103	105

The listing, previewed entries included:
SMILES	PV pol inh	PV pol inh intensity
CC(=O)Nc1ccc(Nc2ncnc3c2c(-c2ccccc2)cn3-c2ccc(C)c(Cl)c2)cc1	106	110
COc1ccc(-n2c(=O)c3c(C)c(C)sc3n(Cc3ccc(F)cc3)c2=O)c(OC)c1	103	105
CCC1CN(C(=O)N2CCC(C(=O)NCc3cccc(F)c3)CC2)c2cc(C)ccc2O1 (centres undefined)	105	103
CC1(C)C(=O)N(CC(=O)Nc2cccc(F)c2)c2ccc(S(=O)(=O)N3CCCCC3)cc21	101	104
Cc1ccc(Nc2c3c(nc4nncn24)CCC3)cc1C	108	110
COc1cccc(-c2cc(C(F)(F)F)nc(-n3nc(C)c(Br)c3C)n2)c1	103	102
Cc1ccc(C)c(N2CCN(C(=O)CN3C(=O)CSc4c3c(C)nn4-c3ccccc3)CC2)c1	111	117
COc1ccc(NC(=O)[C@H](Cc2ccccc2)N2Cc3ccccc3C2=O)cc1OC	103	104
COc1ccc(NC(=O)c2c(NCc3cccs3)sc3c2CCCCC3)cc1	109	108
CC(=O)Nc1ccc(NS(=O)(=O)c2ccc3c(c2)CC(C)N3C(=O)C2CCC2)cc1 (centres undefined)	109	115
CCOc1ccc(NC(=O)CSc2c3c(nc4ccccc24)CCCC3)cc1	108	108
COc1ccc(CNC(=O)CCC(=O)N2CC3CCCN3c3ccccc32)c(OC)c1 (centres undefined)	103	107
CCC(NC(=O)Nc1cc(Cl)ccc1OC)c1c(-n2cccc2)sc2c1CCN(C)C2 (centres undefined)	114	126
Cc1ccc2[nH]cc(S(=O)(=O)c3ccc(C)c(C)c3)c(=O)c2c1	99	102
Brc1ccc(CN2CCc3nc(N4CCN(c5ncccn5)CC4)ncc3C2)cc1	96	104
Cc1ccc(C2Nc3ccccc3-n3c(-c4ccccc4)c4c(=O)n(C)c(=O)n(C)c4c32)cc1 (centres undefined)	105	104
CCCc1nc2ccccc2n2c(-c3cccc(C)c3)c3c(=O)n(C)c(=O)n(C)c3c12	105	105
CCc1cccc(NS(=O)(=O)c2cc(-c3cnc(C)o3)ccc2OC)c1	107	111
CCC1CN(C(=O)Nc2cccc3c2CCCC3)c2cc(C)ccc2O1 (centres undefined)	111	113
CC(=O)c1ccc(N2CCN(C(=O)C3CCN(S(=O)(=O)c4cccc5nonc45)CC3)CC2)cc1	111	115
COc1ccc(-c2c3c(=O)n(C)c(=O)n(C)c3cn2-c2cccc(N)c2)cc1	105	108
COc1ccc(-c2nn(CC(=O)Nc3ccccc3F)c3c2cnc2ccc(F)cc23)cc1	110	109
CCc1ccccc1NC(=O)C(=O)NCC(c1cccnc1)N1CCN(c2ccccc2F)CC1 (centres undefined)	112	113
CCc1cccc(NC(=O)C2CCN(S(=O)(=O)c3ccc(Br)s3)CC2)c1	108	112

Some of the entries so far, bar-delimited:
mol | PV pol inh | PV pol inh intensity
CCCc1nc2ccccc2n2c(-c3cccc(C)c3)c3c(=O)n(C)c(=O)n(C)c3c12 | 105 | 105
CCc1cccc(NS(=O)(=O)c2cc(-c3cnc(C)o3)ccc2OC)c1 | 107 | 111
CCC1CN(C(=O)Nc2cccc3c2CCCC3)c2cc(C)ccc2O1 (centres undefined) | 111 | 113
CC(=O)c1ccc(N2CCN(C(=O)C3CCN(S(=O)(=O)c4cccc5nonc45)CC3)CC2)cc1 | 111 | 115
COc1ccc(-c2c3c(=O)n(C)c(=O)n(C)c3cn2-c2cccc(N)c2)cc1 | 105 | 108
COc1ccc(-c2nn(CC(=O)Nc3ccccc3F)c3c2cnc2ccc(F)cc23)cc1 | 110 | 109

More structures follow:
SMILES	PV pol inh	PV pol inh intensity
COc1cccc(-n2cc(C(=O)NCCc3ccc(C)cc3)c3ccccc3c2=O)c1	111	110
COc1ccc(/C=C/C(=O)Nc2ccc(C)cc2)cc1	102	108
COc1cc(C2CC(=O)Nc3c2c(C)nn3-c2nncc(-c3ccccc3)n2)cc(OC)c1OC (centres undefined)	103	107
O=c1n(Cc2ccccc2)nc2n1-c1ccccc1OC2	106	101
COc1cccc(NC(=O)c2c(-c3ccc(C)cc3)nnc3ccccc23)c1	109	109
CCOc1ccccc1CNC(=O)c1[nH]c2ccccc2c1Sc1ccccc1	106	116
CC(C)CCn1c(=O)c2cccnc2n(CC(=O)Nc2ccc(F)cc2)c1=O	103	105
COc1ccc(N2CCN(c3ncnc4onc(-c5ccc(F)cc5)c34)CC2)cc1	113	116
Cc1c(C(=O)NCc2ccc(F)cc2)sc2nc(-c3ccc(F)cc3)cn12	103	104
Cc1cccc(C(=O)NCC(c2cccs2)S(=O)(=O)c2cccs2)c1 (centres undefined)	109	113
CCOc1ccccc1C(=O)N(Cc1ccco1)Cc1ccccc1F	108	109
Cc1ccc(N2CCN(C(=O)c3cnn(-c4ccc(C)c(C)c4)c3C3CCNCC3)CC2)c(C)c1	74*	78*
CCc1ccc(NC(=O)N2CCC(N3CCN(Cc4ccc(C)cc4)C(=O)C3=O)CC2)cc1	105	91
CCCN(CCC)C(=O)C1CCN(c2cc(C)nc3c(-c4ccc(Cl)cc4)c(C)nn23)CC1	110	112
O=C(Cn1nc2c(cc1=O)CCCC2)NCc1ccccc1	110	118
O=c1c2ccccc2n(Cc2cccc(Cl)c2)c(=O)n1Cc1ccccc1	102	105
COc1ccc(N(C(=O)c2ccccc2C)S(=O)(=O)c2ccc(Cl)cc2)cc1	108	106
CCOc1ccccc1CNS(=O)(=O)c1cnc(N)nc1	109	118
Cc1ccc(C(=O)c2c(N)c(C(=O)Nc3cccc(C(F)(F)F)c3)c3ccccn23)cc1	110	100
CCOC(=O)c1cnc(NCc2ccccc2OC)c2ccccc12	109	115
CCOc1ccc(C(=O)c2cn(CC(=O)Nc3cc(OC)ccc3OC)c3cc(OC)c(OC)cc3c2=O)cc1	104	106
COc1cc(NC(=O)CCc2c(C)n(C)c3cc(-c4ccccc4C)nn3c2=O)cc(OC)c1OC	109	102
O=S(=O)(c1ccccc1)c1nc(-c2cccs2)oc1N1CCCCC1	103	102
CCOc1ccc(-n2nc3ccc(NC(=O)c4ccc(-c5cccc(Cl)c5)o4)cc3n2)cc1	106	113
COC(=O)CSc1nc2c(cnn2-c2ccc(F)cc2)c(=O)[nH]1	99	103
O=C(COc1ccc(F)cc1)Nc1ccc(S(=O)(=O)N(Cc2ccccc2)c2ccccc2)cc1	112	108
COc1ccccc1CNS(=O)(=O)c1ccc(-c2cnc(C3CC3)o2)cc1	106	106
CCOc1c(Cl)cc(C(=O)N(Cc2ccc(N(C)C)cc2)Cc2ccco2)cc1Cl	106	108
CCn1c(C(=O)NCc2cc(Br)ccc2OC)cc2oc3ccccc3c21	108	112
Cc1ccc(C)c(N2CCN(C(=O)CCS(=O)(=O)c3cc(Br)cc4c3N(C(=O)C3CC3)CC4)CC2)c1	105	107
CCc1cccc(NC(=O)CSc2ncc3c(n2)-c2ccccc2N(CC)S3(=O)=O)c1	102	105
CCc1ccc(S(=O)(=O)c2cn(Cc3ccccc3)c3cc(F)c(F)cc3c2=O)cc1	103	103
Cc1c(Cl)cccc1NC(=O)CSc1nc(=O)n(Cc2ccncc2)c2c1CCC2	109	102
CCOC(=O)c1c(C)[nH]c(C)c1S(=O)(=O)N1CCC(C(=O)NCc2ccc(F)cc2)CC1	103	99
Cc1ccc(CNS(=O)(=O)c2ccc(C(=O)N(C)C)s2)cc1	107	111
CC(=O)Nc1ccc(NC(=O)C(Cc2ccccc2)N2Cc3ccccc3C2=O)cc1 (centres undefined)	104	103

Part of the list above in a different format:
| SMILES | PV pol inh | PV pol inh intensity |
| --- | --- | --- |
| CCc1ccc(S(=O)(=O)c2cn(Cc3ccccc3)c3cc(F)c(F)cc3c2=O)cc1 | 103 | 103 |
| O=C(COc1ccc(F)cc1)Nc1ccc(S(=O)(=O)N(Cc2ccccc2)c2ccccc2)cc1 | 112 | 108 |
| CCn1c(C(=O)NCc2cc(Br)ccc2OC)cc2oc3ccccc3c21 | 108 | 112 |
| CCOc1c(Cl)cc(C(=O)N(Cc2ccc(N(C)C)cc2)Cc2ccco2)cc1Cl | 106 | 108 |
| Cc1c(Cl)cccc1NC(=O)CSc1nc(=O)n(Cc2ccncc2)c2c1CCC2 | 109 | 102 |

(next part)
SMILES	PV pol inh	PV pol inh intensity
Cc1cccc(-c2nc(CCNC(=O)c3ccco3)cs2)c1	108	113
O=C(CSC1=Nc2ccccc2N=C(c2ccc(F)cc2)C1)NCc1ccc(Cl)cc1	108	100
COc1ccc(OC)c(NC(=O)CN2CCCN(Cc3cc(C)ccc3C)S2(=O)=O)c1	103	102
O=C(NCCCc1ccccc1)C1CCN(C(=O)N2CCOc3ccc(Cl)cc32)CC1	109	113
CCCCc1ccc(NC(=O)c2cc(-c3ccc(C)c(F)c3)on2)cc1	106	107
CN(C1CCCCC1)S(=O)(=O)c1ccc2c(c1)c(=O)c(C(=O)NCCc1ccccc1)cn2C	108	113
COc1cc(OC)c(N(C)C(=O)c2cn(C3CCCC3)c(=O)c3c2c2ccccc2n3C)cc1Cl	114	113
COc1ccc(Nc2cc(C(=O)NCCc3ccccc3)c3ccccc3n2)cc1OC	114	114
COc1cc(/C=C(\C#N)C(=O)NCC2CCCO2)ccc1O (centres undefined)	105	104
O=c1c2sccc2n(Cc2cc(=O)n3ccccc3n2)c(=O)n1-c1cc(F)ccc1F	104	107
Cc1ccc(CN2C(=O)N(c3ccc(C)c(Cl)c3)S(=O)(=O)c3ccccc32)cc1	110	108
Cc1ccc(C2CC(=O)n3nc(-c4cccc(C)c4)nc3S2)cc1 (centres undefined)	100	104
CN(C)c1cccc(NC(=O)c2ccncc2)c1	101	98
Clc1ccc(CCNc2nc3ccccc3c3nc(-c4ccccc4)nn23)cc1	107	109
COC(=O)c1sc(-c2ccccc2)cc1NC(=O)Nc1ccccc1Cl	106	104
CCOc1ccccc1N(CC(=O)NCCSc1ccccc1)S(=O)(=O)c1ccccc1	102	102
CCOc1ccccc1CNC(=O)CN1C(=O)CCn2nc(-c3cn(C)c4ccccc34)cc21	106	111
CN(C(=O)CSc1cn(CC(=O)N2CCOCC2)c2ccccc12)c1ccccc1	120	119
Cc1ccc(-c2cn3cccc(C)c3n2)cc1NS(=O)(=O)c1ccccc1	105	112
Cc1cc(N2CCN(C)CC2)nc2ccc(NC(=O)c3ccc(C(C)(C)C)cc3)cc12	101	102
O=C(CSc1nc2c([nH]c3ccccc32)c(=O)n1-c1ccc(Cl)cc1)c1ccccc1	101	106
COc1ccc(NC(=O)CN2CCCN(Cc3ccc(Cl)cc3)S2(=O)=O)cc1Cl	102	107
CC1CCc2c(sc(NC(=O)Cc3ccccc3)c2C(=O)Nc2ccc(Cl)cc2)C1 (centres undefined)	103	104
Cc1ccc2c(c1)c1c(c(=O)n(Cc3ccccc3)c(=O)n1Cc1cccc(F)c1)n2C	108	112
CC(=O)c1ccc(NC(=O)C(C)n2nc(-c3ccccc3)ccc2=O)cc1 (centres undefined)	108	97
COc1ccc(N2CCN(C(=O)Cn3cnc4sc(C)c(S(=O)(=O)N5CCC(C)CC5)c4c3=O)CC2)cc1	106	102
Cc1cc(C)c(/C=C/c2onc(C)c2S(=O)(=O)N2CCC(C(=O)NCc3ccco3)CC2)c(C)c1	104	107
COc1ccc(OC)c(CNC(=O)CCCn2nc(C)c3c(C)n(-c4ccc(C)cc4)nc3c2=O)c1	102	107
CCOC(=O)c1c(C)[nH]c(CCC(=O)NCc2cccc(C)c2)c1C	113	110
COc1ccc(Br)cc1Cn1nnc(C(=O)Nc2cccc(SC)c2)c1N	103	105
CCCCN(CC)CCNC(=O)C1CCN(c2nnc(C)c3c(C)n(-c4ccc(C)cc4)nc23)CC1	98	107
CCCOc1ccc(C(=O)Nc2ccc(Cl)c(-c3nc4ncccc4o3)c2)cc1	105	112
CC(Oc1ccccc1)C(=O)Nc1nnc(S(=O)(=O)N2CCCCCC2)s1 (centres undefined)	102	102
COc1ccc(C(=O)c2c(N)c(C(=O)Nc3ccccc3Cl)c3ccccn23)cc1	101	103
Cc1cccc(CSc2cn(CC(=O)N3CCCCC3)c3ccccc23)c1	113	105
O=C(Nc1ccc2oc(-c3cccnc3)nc2c1)c1ccc(-c2ccc(OC(F)(F)F)cc2)o1	104	107
Cc1cc(=O)n(CC(=O)N2CCCCC2)c2c1c(C)nn2C	104	112
Cc1ccc(Cl)cc1NC(=O)/C(C#N)=C\c1cn(Cc2ccc(F)cc2)c2ccccc12	104	112
Cc1ccc(S(=O)(=O)N2CCCc3cc(NC(=O)c4ccccc4Cl)ccc32)cc1	113	100
Cc1cccc(OC(C)C(=O)NCC2(N(C)C)CCCCC2)c1C (centres undefined)	108	112
CCCc1cc(C(=O)Nc2c(C)nn(Cc3c(Cl)cccc3Cl)c2C)no1	108	111
Cc1cc(C)cc(N2C(=O)CSC23C(=O)N(CC(=O)NC2CCCCC2)c2ccccc23)c1 (centres undefined)	101	98
CCOC(=O)c1cccc(NC(=O)c2ccc3c(c2)nnn3CC)c1	100	106
COCCn1ccc2c(OCC(=O)Nc3cccc(C(F)(F)F)c3)cccc2c1=O	106	114
Cc1ccc(Cl)cc1-n1c(CCC(=O)O)ccc1-c1cccs1	109	113
Cc1ccc(OCCSc2nc(C)c(Cc3ccccc3)c(=O)[nH]2)cc1	106	109
Cc1ccc2ccc3cc(C(=O)N4CCN(c5ccccc5F)CC4)nc3c2[nH]1	111	109
COc1ccc(CC(=O)Nc2c(C(=O)N3CCN(c4ccccc4)CC3)oc3ccccc23)cc1OC	98	102
COc1cccc(NC(=O)C2CCCN2S(=O)(=O)c2ccc3nc(-c4ccccc4)[nH]c3c2)c1 (centres undefined)	106	99
Cc1cc(C)c(Cn2c3ccccc3c3cnn(CC(=O)NCC(C)c4ccccc4)c(=O)c32)c(C)c1 (centres undefined)	102	105
Cc1nn(C(=O)c2cccc([N+](=O)[O-])c2C)c(C)c1S(=O)(=O)N1CCCCCC1	112	107
CCOc1ccc(C(=O)Nc2cccc(C(=O)OCc3cc(=O)n4cc(C)sc4n3)c2)cc1	109	114
